# High-throughput results from PubChem.
# Vaccinia stage = blocks a specific stage of Vaccinia orthopoxvirus infection; AID 1053133; Vaccinia-infected cells, mCherry/Venus stage reporter fluorescence; stronger effect = lower value; some inactives read as strong as hits; 0.01% of 89,000 active; activity change (mCherry), % (concentration not given with the values);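 active = mCherry past -33% and 40 or more points under the early reporter, replicates agreeing; inconclusive = past -33% without that gap or agreement; tested in A549 cells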;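 note: scaled between vehicle wells and reference inhibitor wells; 23 nL library stock went into each well; one replicate is shown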
# Vaccinia stage Venus = also measured in Vaccinia stage; calls as there; activity change (Venus), %; measured here: Venus reporter, other viral stage;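 negative = less Venus signal; first of two replicates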
# Numbers without * were called inactive; ? = inconclusive; / = no result given.
# Each structure is followed by: Vaccinia stage | Vaccinia stage Venus
CN1C(=O)c2cc(NC(=O)c3ccno3)ccc2OC[C@H]2O[C@@H](CC(=O)Nc3ccccc3)CC[C@@H]21
→ 6 | 3
CO[C@@H]1CN(C)C(=O)c2ccc(NC(C)=O)cc2OC[C@H](C)N(CC2CCCCC2)C[C@H]1C
→ -8 | 6
CC(C)NC(=O)NCC[C@@H]1CC[C@@H](NS(=O)(=O)c2ccccc2)[C@@H](CO)O1
→ 8 | 1
O=C(C[C@H]1C[C@H]2c3cc(NC(=O)CC4CC4)ccc3O[C@H]2[C@@H](CO)O1)NCCN1CCCCC1
→ 8 | 1
COc1ccc(NC(=O)O[C@H]2[C@H](OC(=O)Nc3ccc4c(c3)OCO4)[C@@H](OC(=O)Nc3ccc4c(c3)OCO4)[C@@H](OC)O[C@@H]2CO)cc1
→ -15 | -10
COc1cccc(CNC(=O)C[C@@H]2C=C[C@H](NC(=O)C3CCOCC3)[C@H](CO)O2)c1
→ 10 | 8
C[C@H]1CN([C@@H](C)CO)C(=O)c2cc(-c3ccccc3)cnc2O[C@@H]1CN(C)Cc1cccnc1
→ 28 | 6
C[C@@H]1CN([C@H](C)CO)C(=O)c2cc(NC(=O)CCC(F)(F)F)ccc2O[C@@H]1CN(C)Cc1ccc(C(=O)O)cc1
→ 1 | -11
COCC#Cc1cnc2c(c1)C(=O)N([C@@H](C)CO)C[C@@H](C)[C@@H](CN(C)C(=O)Nc1ccccc1OC)O2
→ 10 | 5
O=C(C[C@@H]1CC[C@H]2[C@@H](COC[C@@H](O)CN2CC2CCCCC2)O1)NCC1CC1
→ -3 | -4
CCCN(C)C[C@@H]1OCCCC[C@@H](C)Oc2ccc(NC(=O)C3CCCCC3)cc2C(=O)N([C@@H](C)CO)C[C@@H]1C
→ 8 | 6
C[C@H](CO)N1C[C@H](C)[C@H](CN(C)Cc2ccc(C(=O)O)cc2)Oc2ccc(NC(=O)Nc3ccc(F)cc3)cc2CC1=O
→ 13 | 11
COc1ccc(NC(=O)Nc2ccc3c(c2)CC(=O)N([C@H](C)CO)C[C@H](C)[C@H](CN(C)C(=O)Nc2ccc(OC)cc2)O3)cc1
→ -9 | 4
C[C@H](CO)N1C[C@H](C)[C@@H](CN(C)C(=O)NC2CCCCC2)OCCCC[C@H](C)Oc2ccc(NC(=O)NC3CCCCC3)cc2C1=O
→ -17 | -21
C/C=C/c1ccc(C2[C@H]3CNC[C@@H]2N3C(=O)NC2CCCCC2)cc1 (stereo partly drawn)
→ 8 | 7
O=C(C[C@@H]1CC[C@H]2[C@@H](COC[C@@H](O)CN2S(=O)(=O)c2cccc(Cl)c2)O1)Nc1ccccc1
→ -20 | -9
COc1ccc(NC(=O)Nc2ccc3c(c2)C(=O)N([C@@H](C)CO)C[C@@H](C)[C@@H](CN(C)C(=O)NC(C)C)OCCCC[C@H](C)O3)cc1
→ 8 | 11
C[C@H](CO)N1C[C@H](C)[C@H](CN(C)CC2CC2)Oc2ccc(NC(=O)CCCN(C)C)cc2C1=O
→ 10 | 5
C[C@@H]1CCCCO[C@@H](CN(C)C)[C@H](C)CN([C@@H](C)CO)C(=O)c2cc(NS(=O)(=O)c3cn(C)cn3)ccc2O1
→ 21 | 9
C[C@@H]1CCCCO[C@@H](CN(C)C(=O)Nc2ccc3c(c2)OCO3)[C@@H](C)CN([C@H](C)CO)C(=O)c2cc(NC(=O)Nc3cccc4ccccc34)ccc2O1
→ 30 | 15
O=C(c1ccc2c(c1)OCO2)N1CC(=O)N2[C@@H](CO)[C@@H](c3ccc(C#Cc4ccccc4)cc3)[C@@H]2C1
→ ? | /
CCCC#Cc1cnc2c(c1)C(=O)N([C@@H](C)CO)C[C@H](C)[C@@H](CN(C)C(=O)c1cccnc1)O2
→ 32 | 11
O=C(C1CCCC1)N1CC(=O)N2[C@@H](CO)[C@@H](c3ccc(-c4ccccc4F)cc3)[C@@H]2C1
→ -9 | -8
COc1ccccc1NC(=O)N1CC(=O)N2[C@H](CO)[C@H](c3ccc(-c4cccc(C)c4)cc3)[C@@H]2C1
→ -28 | -19
Cc1noc(C)c1NC(=O)N(C)C[C@@H]1OCCCC[C@H](C)Oc2ccc(NC(=O)c3ccncc3)cc2C(=O)N([C@@H](C)CO)C[C@H]1C
→ 35 | 17
COc1ccc(NC(=O)N(C)C[C@H]2Oc3ncc(C#C[C@@H](C)O)cc3C(=O)N([C@@H](C)CO)C[C@H]2C)cc1
→ 18 | 14
C[C@H](NC(=O)C[C@@H]1CC[C@@H]2[C@H](COC[C@@H](O)CN2Cc2cc(F)ccc2F)O1)c1ccccc1
→ 12 | 6
CCS(=O)(=O)N1CC2(CN(Cc3ccc4c(c3)OCO4)[C@H](CO)c3c2c2ccc(OC)cc2n3C)C1
→ 1 | -12
CCCN(C)C[C@H]1OCCCC[C@H](C)Oc2ccc(NS(=O)(=O)c3ccc(Cl)cc3)cc2C(=O)N([C@@H](C)CO)C[C@H]1C
→ -30 | -20
CO[C@@H]1CN(C)C(=O)c2cc(NC(C)=O)ccc2OC[C@@H](C)NC[C@@H]1C
→ 6 | 8

# 6 entries from above, tab-delimited.
structure	Vaccinia stage	Vaccinia stage Venus
CCCC#Cc1cnc2c(c1)C(=O)N([C@@H](C)CO)C[C@H](C)[C@@H](CN(C)C(=O)c1cccnc1)O2	32	11
O=C(C1CCCC1)N1CC(=O)N2[C@@H](CO)[C@@H](c3ccc(-c4ccccc4F)cc3)[C@@H]2C1	-9	-8
COc1ccccc1NC(=O)N1CC(=O)N2[C@H](CO)[C@H](c3ccc(-c4cccc(C)c4)cc3)[C@@H]2C1	-28	-19
Cc1noc(C)c1NC(=O)N(C)C[C@@H]1OCCCC[C@H](C)Oc2ccc(NC(=O)c3ccncc3)cc2C(=O)N([C@@H](C)CO)C[C@H]1C	35	17
COc1ccc(NC(=O)N(C)C[C@H]2Oc3ncc(C#C[C@@H](C)O)cc3C(=O)N([C@@H](C)CO)C[C@H]2C)cc1	18	14
C[C@H](NC(=O)C[C@@H]1CC[C@@H]2[C@H](COC[C@@H](O)CN2Cc2cc(F)ccc2F)O1)c1ccccc1	12	6

# New compounds follow.
# Each structure is followed by: Vaccinia stage | Vaccinia stage Venus
CN1C(=O)c2cc(NC(=O)c3ccc(F)c(F)c3)ccc2OC[C@@H]2O[C@@H](CC(=O)N[C@H]3CCN(Cc4ccccc4)C3)CC[C@H]21
→ -19 | -15
COCC1=C([C@H](O)c2ccccc2)[C@H](CO)[C@@H]2C(=O)N(Cc3ccccc3)C(=O)[C@@H]2C1
→ 11 | 11
C[C@@H]1CN([C@H](C)CO)C(=O)c2cccc(NC(=O)C3CC3)c2O[C@@H]1CN(C)Cc1ccc2c(c1)OCO2
→ 4 | 10
C[C@@H]1CN([C@H](C)CO)S(=O)(=O)c2ccc(-c3ccc(F)cc3)cc2O[C@H]1CN(C)C
→ -15 | -12
C[C@H](CO)N1C[C@H](C)[C@H](CN(C)Cc2ccc3c(c2)OCO3)Oc2ccc(NC(=O)Cn3cnnn3)cc2C1=O
→ 6 | 4
C[C@@H]1CCCCO[C@@H](CN(C)Cc2ccc(C(F)(F)F)cc2)[C@@H](C)CN([C@H](C)CO)C(=O)c2cc(NS(=O)(=O)c3cccs3)ccc2O1
→ -19 | -12
CO[C@H]1CC[C@@H]2CCN(C)C(=O)[C@@H](C)CN(C)C(=O)c3cccc(C#N)c3OC[C@H]1O2
→ 8 | -2
CC(C)CC#Cc1ccc([C@H]2[C@@H](CO)N3C(=O)CN(C(=O)Nc4ccc(F)cc4)C[C@H]23)cc1
→ -29 | -23
CC(C)NC(=O)N(C)C[C@H]1Oc2ncc(C#Cc3ccncc3)cc2C(=O)N([C@@H](C)CO)C[C@@H]1C
→ 5 | 13
C[C@@H]1CN([C@H](C)CO)S(=O)(=O)c2ccc(-c3ccccc3)cc2O[C@@H]1CN(C)C(=O)c1ccc2c(c1)OCO2
→ ? | /
O=C(N[C@@H]1CC[C@@H](CCNS(=O)(=O)c2ccccc2)O[C@H]1CO)c1cccc(F)c1
→ 6 | 4
C[C@@H]1CN([C@H](C)CO)C(=O)Cc2cc(NC(=O)Cn3cnnn3)ccc2O[C@@H]1CN(C)C(=O)Nc1ccccc1
→ 45 | 25
COc1ccc(C(=O)N2C[C@H]3[C@@H](c4ccccc42)[C@H](CO)N3C(=O)c2ccc(F)cc2)cc1
→ 15 | 5
CO[C@H]1CN(C)C(=O)c2cc(NC(=O)Nc3cccc(F)c3)ccc2OC[C@H](C)N(C(=O)Nc2c(C)noc2C)C[C@@H]1C
→ 1 | 15
CO[C@@H]1CN(C)C(=O)c2cc(NS(=O)(=O)CC(F)(F)F)ccc2OC[C@@H](C)N(C(=O)c2ccc3c(c2)OCO3)C[C@H]1C
→ 12 | -2
CCCC#Cc1ccc2c(c1)O[C@@H](CN(C)C(=O)NC(C)C)[C@@H](C)CN([C@H](C)CO)S2(=O)=O
→ -12 | -11
COc1ccc2c3c(n(C)c2c1)[C@H](CO)N(C(=O)c1ccccn1)CC31CN(C(=O)c2ccccn2)C1
→ 18 | 1
O=C(Nc1ccc(C(F)(F)F)cc1)Nc1ccc2c(c1)[C@@H]1C[C@@H](CC(=O)N3CCc4ccccc4C3)O[C@H](CO)[C@@H]1O2
→ ? | /
C[C@@H]1CN([C@@H](C)CO)C(=O)Cc2cc(NC(=O)C3CC3)ccc2O[C@@H]1CN(C)C(=O)Nc1ccc2c(c1)OCO2
→ 1 | -3
C[C@H](CO)N1C[C@H](C)[C@@H](CN(C)C(=O)Nc2ccc(C(F)(F)F)cc2)OCCCC[C@H](C)Oc2ccc(NC(=O)c3ccccc3)cc2C1=O
→ -22 | -13
Cc1cc(C(=O)Nc2cccc3c2O[C@@H](CN(C)S(C)(=O)=O)[C@H](C)CN([C@@H](C)CO)C3=O)n(C)n1
→ 30 | 12
COc1ccc(S(=O)(=O)Nc2ccc3c(c2)C(=O)N(C)C[C@H](OC)[C@@H](C)CN[C@H](C)CO3)cc1
→ 9 | 4
O=C(NCC1CCCCC1)[C@H]1[C@H](CO)[C@H]2Cn3c(ccc(-c4cncnc4)c3=O)[C@@H]1N2
→ 22 | 12
Cc1ccc(-c2ccc([C@H]3[C@H]4CN(C(=O)NC(C)C)CC(=O)N4[C@H]3CO)cc2)cc1
→ ? | /
O=C(C[C@H]1C=C[C@@H](NC(=O)C2CCC2)[C@@H](CO)O1)NCC1CC1
→ 14 | 14
O=C(Nc1ccc(F)cc1)N1CC(=O)N2[C@H](CO)[C@@H](c3ccc(C#Cc4cccnc4)cc3)[C@H]2C1
→ -12 | -15
C[C@@H]1CCCCO[C@H](CN(C)S(=O)(=O)c2ccc(Cl)cc2)[C@H](C)CN([C@H](C)CO)C(=O)c2cc(NS(=O)(=O)c3cn(C)cn3)ccc2O1
→ -4 | -6
C[C@H]1CCCCO[C@@H](CN(C)C(=O)c2ccncc2)[C@@H](C)CN([C@@H](C)CO)C(=O)c2cc(NC(=O)C3CCCCC3)ccc2O1
→ 8 | 1
COc1ccc(S(=O)(=O)Nc2ccc3c(c2)C(=O)N([C@@H](C)CO)C[C@@H](C)[C@@H](CN(C)S(=O)(=O)c2cccs2)OCCCC[C@H](C)O3)cc1
→ 1 | 5
O=C(C[C@@H]1CC[C@@H](NC(=O)C2CC2)[C@@H](CO)O1)Nc1nccs1
→ -1 | 5
C[C@H](CO)N1C[C@H](C)[C@@H](CN(C)Cc2ccccc2)Oc2ccc(NC(=O)Cc3ccccc3)cc2C1=O
→ 1 | -2
COc1ccc(NC(=O)N(C)C[C@@H]2Oc3ccc(NC(=O)NC4CCCCC4)cc3C(=O)N([C@@H](C)CO)C[C@H]2C)cc1
→ 16 | 20
C[C@@H]1CN([C@@H](C)CO)C(=O)Cc2cc(NC(=O)Cn3cnnn3)ccc2O[C@@H]1CN(C)Cc1ccc(-c2ccccc2)cc1
→ -7 | -5
C[C@@H]1CN([C@@H](C)CO)C(=O)c2cc(NC(=O)Cc3cn(C)c4ccccc34)ccc2O[C@@H]1CN(C)S(=O)(=O)c1ccc(F)cc1
→ -19 | -17
C[C@H]1CN([C@@H](C)CO)C(=O)c2cc(NC(=O)C3CCCCC3)ccc2O[C@@H]1CN(C)C(=O)Nc1ccc2c(c1)OCO2
→ -4 | 2
COCC(=O)Nc1ccc2c(c1)C(=O)N(C)C[C@H](OC)[C@@H](C)CN(C(=O)CC1CC1)[C@H](C)CO2
→ 9 | 10
COc1ccccc1-c1ccc2c(c1)O[C@@H](CN(C)C)[C@@H](C)CN([C@@H](C)CO)S2(=O)=O
→ -4 | -7
C[C@@H]1CN([C@@H](C)CO)C(=O)c2cc(NS(=O)(=O)c3ccc(F)cc3)ccc2O[C@H]1CN(C)CC1CC1
→ 17 | 1
C/C=C/c1ccc2c(c1)O[C@@H](CN(C)CCC)[C@@H](C)CN([C@H](C)CO)S2(=O)=O
→ -8 | -7
COc1ccc(S(=O)(=O)N[C@H]2CC[C@@H](CCn3cc(-c4cccc(F)c4)nn3)O[C@H]2CO)cc1
→ -18 | -4
COCC(=O)N(C)C[C@H]1Oc2cc(-c3ccc(OC)cc3)ccc2S(=O)(=O)N([C@H](C)CO)C[C@H]1C
→ 5 | -2
CCc1cnc(N2[C@H](C#N)[C@@H](c3ccc(C#CC(C)C)cc3)[C@H]2CO)s1
→ -7 | -5
C[C@@H]1CN([C@@H](C)CO)C(=O)c2cc(NC(=O)c3ccncc3)ccc2O[C@@H]1CN(C)CC1CCCCC1
→ 1 | 13
COc1ccc(S(=O)(=O)Nc2cccc3c2O[C@@H](CN(C)C(=O)NC(C)C)[C@H](C)CN([C@H](C)CO)C3=O)cc1
→ 11 | 6
Cc1cc(C(=O)Nc2cccc3c2O[C@H](CN(C)C)[C@H](C)CN([C@H](C)CO)C3=O)n(C)n1
→ 7 | 8
CN1C[C@H]2[C@@H](c3ccccc31)[C@@H](CO)N2Cc1ccccc1F
→ 5 | -1
CCCC#Cc1ccc2c(c1)O[C@H](CN(C)Cc1cncnc1)[C@@H](C)CN([C@H](C)CO)S2(=O)=O
→ -26 | -29
C[C@@H]1CN([C@@H](C)CO)C(=O)c2cc(NC(=O)Nc3ccc(C(F)(F)F)cc3)ccc2O[C@@H](C)CCCCO[C@H]1CN(C)Cc1ccc(C(=O)O)cc1
→ 18 | 9

# A portion of the library. The share of hits here may be higher or lower than overall.
